GLA inh pH 4.5: qHTS Assay for Inhibitors of Human alpha-Galactosidase at pH 4.5. Alpha-galactosidase A (Homo sapiens), P06280. purified enzyme, 4-MU-alpha-Gal fluorescence, pH 4.5. activity change, negative = inhibition, % at 105 µM. 230,000 tested, under 10 active; inconclusive = small, poorly fitted or top-dose-only inhibition, or a rising curve; inactive = flat fitted curve, though single readings scatter; no compound was filed as active;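 further: 0% = full activity with enzyme and -100% = basal without enzyme; dose as in the result columns while the protocol names 77 µM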
Target sequence (P06280 whole entry, looked up): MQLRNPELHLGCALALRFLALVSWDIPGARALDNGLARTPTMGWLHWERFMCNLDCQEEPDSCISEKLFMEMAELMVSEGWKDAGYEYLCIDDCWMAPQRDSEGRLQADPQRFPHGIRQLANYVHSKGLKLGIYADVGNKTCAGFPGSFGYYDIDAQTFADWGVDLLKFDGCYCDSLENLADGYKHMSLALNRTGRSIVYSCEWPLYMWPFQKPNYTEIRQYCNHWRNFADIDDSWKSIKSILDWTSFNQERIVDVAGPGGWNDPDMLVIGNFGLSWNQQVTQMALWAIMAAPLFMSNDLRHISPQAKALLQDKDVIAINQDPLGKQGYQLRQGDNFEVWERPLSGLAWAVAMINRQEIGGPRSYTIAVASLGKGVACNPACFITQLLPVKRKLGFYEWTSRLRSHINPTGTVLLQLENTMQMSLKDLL
Rango dissoc inh: qHTS Assay for Inhibitors of RanGTP induced Rango (Ran-regulated importin-beta cargo) - Importin beta complex dissociation. actives 0.071% (n = 340,000). Biochemical FRET Rango-importin beta, RanGTP-induced dissociation. Snurportin-1 (Homo sapiens) + GTP-binding nuclear protein Ran (Homo sapiens) + Importin …. Potency, µM (doses to about 46.1 µM), for the others: at the highest dose activity change, negative = inhibition; active means falling FRET ratio curve, often poorly fitted, with flat reads before Ran was added; inconclusive means other falling curves, or compound fluorescence or quenching; inactive means flat or rising ratio curve;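 further: potency means the concentration at half of the fitted maximal effect; % of control where 0% means no effect; nearly all actives have a fitted effect of over 45% in size; -100% = wells without RanGTP and RCC1; the record marks most hits as doubtful in a second field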
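Rango/importin beta premix (0.1/0.25 uM final), PBS + 1 mM DTT + 0.02% Tween-20 + 0.1% BSA; cpd 5 min RT; FRET pre-read; + RanGTP-RCC1 (0.6 uM Ran, 2 mM GTP, 0.2 uM RCC1); 45 min RT; FRET post-read, ex 430, em 486/530 nm.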
miR-21 FLuc: qHTS Assay for Modulators of miRNAs and/orActivators of miR-21. Potency, µM (titrated, usually from 38.3 µM), for inactives: top-dose reporter change, positive = more light. AID 2288, 2010. 340,000 tested, under 10 active. HeLa miR-21 FLuc reporter, luciferase, 48 h; active = well fitted rising curve with a large enough effect; inconclusive = small, poorly fitted or top-dose-only effect; inactive = no such curve, though single readings can be large or run the other way;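 further: % of control where 0% means no effect; miR-21 action dims this reporter so a rising signal means less miR-21 action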
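Luminescence from a firefly luciferase reporter carrying a miR-21 binding site downstream, stably expressed under a CMV promoter in HeLa cells that make miR-21 endogenously, reports miRNA modulation after 48 h compound exposure up to approximately 40uM final.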
Rango complex inh: qHTS Assay for Inhibitors of Rango (Ran-regulated importin-beta cargo) - Importin beta complex formation; Importin subunit beta-1 (Homo sapiens), Q14974; actives 0.031% (n = 340,000); Potency, µM (top dose mostly 92.2 µM), inactives show at the top dose inhibition of complex formation; Rango CFP/YFP FRET sensor + importin beta, 45 min; active = rising FRET ratio curve, often small or poorly fitted; inconclusive = mostly compound fluorescence or quenching in the first reads; inactive = flat curves in all reads;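 further: potency means the concentration at half of the fitted maximal effect; 0% = DMSO wells and 100% = buffer wells lacking importin beta; nearly all actives have a fitted effect of over 15% in size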
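FRET biosensor (snurportin 1 IBB flanked by EYFP and cerulean), 50 nM, with compound 5 min, then 0.125 microM importin beta in PBS, 1 mM DTT, 0.02% Tween-20, 0.1% BSA. CFP/YFP ratio read after 45 min at room temperature; pre-read flags interference.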
* hit, by the source's call; ? = inconclusive; · = not tested or not shown; & = joins results of further samples; [ ] = remark or other dose.

Start of the data: the first 3 compounds, to show the layout:
Rango complex inh,Rango dissoc inh,miR-21 FLuc,GLA inh pH 4.5,mol
6.6%,0.7%,-3.6%,3.6,COCCN(CCOC)C(=O)c1c[nH]c2ccc(S(=O)(=O)N(C)c3ccc(F)cc3)cc2c1=O
-0.2%&0.1%,26.4%&-10.7%,-3.0%,0.8,COC(=O)C1=C(C)NC(C)=C(C(=O)OC)C1C(=O)OCC(=O)N1c2ccccc2CC1C (stereo not given)
-1.0%,-2.9%,-0.6%,·,COc1ccc(CNC(=O)[C@@H](NC(=O)C2CCN(C(=O)[C@@H](N)Cc3ccccc3)CC2)C(C)C)cc1

The whole of this part, from the first entry:
Rango complex inh,Rango dissoc inh,miR-21 FLuc,GLA inh pH 4.5,mol
6.6%,0.7%,-3.6%,3.6,COCCN(CCOC)C(=O)c1c[nH]c2ccc(S(=O)(=O)N(C)c3ccc(F)cc3)cc2c1=O
-0.2%&0.1%,26.4%&-10.7%,-3.0%,0.8,COC(=O)C1=C(C)NC(C)=C(C(=O)OC)C1C(=O)OCC(=O)N1c2ccccc2CC1C (stereo not given)
-1.0%,-2.9%,-0.6%,·,COc1ccc(CNC(=O)[C@@H](NC(=O)C2CCN(C(=O)[C@@H](N)Cc3ccccc3)CC2)C(C)C)cc1
5.9%,-9.1%,-25.6%,·,CC(C)c1ccc(-c2nnn(CC(=O)N3CCCCC3)n2)cc1
-3.0%,-19.4%,-5.6%,-2.0,O=[N+]([O-])c1cccc(CNCc2ccccc2)c1
4.4%,17.1%,·,·,Cc1ccc(CNc2ncnc3c2cnn3C2CCCCO2)cc1 (stereo not given)
0.5%,26.6%,·,·,O=C(CSc1nnc(CN2CCCC2)n1-c1ccccc1)c1ccc2c(c1)OCO2
-4.2%,-5.9%,10.2%,-4.8,CN(c1ccc(C(=O)Nc2cccc([N+](=O)[O-])c2)cc1)S(C)(=O)=O
0.3%,0.7%,-6.0%,-3.1[21.1 µM],O=S(=O)(NCCc1ccccc1)c1cccc2cccnc12
-2.9%,22.7%,-6.5%,-12.7,CCCNC(=O)Nc1ccc(C)cc1C
4.8%,-7.9%,-27.3%,-8.7,CCCn1cc2c(c1-c1ccc(C)cc1)c(=O)n(C)c(=O)n2C
3.3%,5.8%,3.7%,13.2,COc1cc(C(=O)OCC(=O)NCCN2C(=O)CSC2=O)ccc1OCc1c(C)noc1C
0.3%,17.4%,-30.4%,1.3,COc1ccc(C(=O)COc2ccc(C)cc2NC(C)=O)cc1
·,·,0.8%,3.5,O=S(=O)(/N=C(/Nc1ccc(F)cc1F)c1ccccc1)c1ccc(Br)cc1
2.2%,19.4%,·,·,Cn1c(=O)c2nc(-c3ccccc3)c(-c3ccccc3)nc2n(C)c1=O
-0.9%,-2.0%,·,·,NC1=NC(=O)C(=Cc2ccccc2)S1
0.9%,-16.0%,-1.8%,6.3,O=C(COc1c(Br)cc(Br)c2cccnc12)Nc1ccccc1F
-1.5%,10.7%,-10.8%,·,Cc1cc(OC(C)C(=O)Nc2ccc(S(=O)(=O)Nc3onc(C)c3C)cc2)cc(C)c1Cl (stereo not given)
-0.4%,0.1%,·,·,O=C(NCCC1CCCCN1S(=O)(=O)c1ccc(F)cc1)C(=O)NCC1CCCO1 (stereo not given)
-3.4%,37.2%,-1.8%,-5.1,Cc1cc([N+](=O)[O-])nn1CC(=O)NNC(=S)Nc1ccc([N+](=O)[O-])cc1
3.8%,14.3%,-5.1%,2.8,O=C1CCC(C(=O)Nc2nnc(C3CC3)s2)=NN1
-0.3%,20.8%,·,·,Cc1noc(C)c1COc1ccccc1C(=O)N1CCN(c2cccc(Cl)c2)CC1
-0.9%,-5.3%,-39.3%,-10.0,CCC(C)(C)NC(=O)CCCSc1nc2ccccc2s1
5.3%,1.3%,?,7.0,COc1cccc(C(=O)N2CCN(Cc3cn[nH]c3-c3ccc(F)cc3F)CC2)c1
-4.5%,18.0%,1.3%,3.0,CSCC[C@H](NC(=O)NC1CCCC1)C(=O)O
1.4%,9.8%,0.0%,·,Cc1cccc(N=C2NC(=O)C(CO)(CO)S2)c1
5.3%,18.3%,-3.8%,4.0,CC1(C)CC2(CCO1)OC(=O)CC2C(=O)Nc1ccccc1Cl (stereo not given)
5.5%,14.2%,3.4%,·,CC(=O)N1CCC(C(=O)N2CCN(S(=O)(=O)c3cccs3)CC2)CC1
0.3%,-8.0%,-4.7%,7.4,CC(C)NC(NC(=O)Cc1ccccc1)C(Cl)(Cl)Cl (stereo not given)
0.2%,-2.2%,-1.6%,-1.7,CCOC(=O)Cc1csc(NC(=O)/C=C\c2ccccc2)n1
?,-16.3%,·,·,Oc1cc(NCCN2CCOCC2)cc2cccnc12
-1.1%,2.9%,19.5%&9.9%,-15.1&6.7&0.9,NC(=O)N1c2ccccc2CC(=O)c2ccccc21
-0.1%,18.2%,-12.1%,3.7,O=C1CC(N2CCN(c3ccc(Cl)c(Cl)c3)CC2)C(=O)N1 (stereo not given)
-3.0%,-3.2%,·,·,CC1CC(C)CN(S(=O)(=O)c2cc3c4c(c2)CCC(=O)N4CCC3)C1 (stereo not given)
3.2%,-2.8%,5.6%,·,O=C(Nc1nccs1)c1ccc(Cl)c([N+](=O)[O-])c1
3.1%,18.8%,-0.6%,·,COc1ccccc1CNC(=O)C1CCC(CNC(=O)[C@@H]2Cc3ccccc3CN2)CC1 (stereo not given in full)
1.9%,-15.8%,-6.8%,2.5,COc1ccc(OCC(=O)Nc2ccc(N3CCOCC3)cc2)cc1
2.2%,-25.0%,-48.6%,-4.1,FC(F)(F)c1cccc(N2CCc3cn[nH]c32)c1
0.8%,-3.1%,·,·,Cn1nc(C(=O)OCC(=O)c2ccccc2)c2ccccc2c1=O
?,?,-5.9%,1.8,CCOC(=O)c1[nH]c2ccc(OC)cc2c1NC(=O)/C=C/c1ccc2c(c1)OCO2
-0.8%,17.4%,1.3%,12.1,CCc1cc(C(=O)OC)c(NC(=O)CC2SC(=NC)N(C)C2=O)s1 (stereo not given)
2.9%,0.4%,-8.1%,·,COc1cccc2cc(C(=O)NCc3ccc(Cl)cc3)c(=N)oc12
-0.1%,-1.8%,·,·,O=S(=O)(NCc1nnc2ccccn12)c1ccc(Cl)cc1
5.9%,1.0%,-3.6%,·,O=C(NCCO)C(=O)NCC(c1ccc2c(c1)OCO2)N1CCN(c2ccc(F)cc2)CC1 (stereo not given)
-2.1%,11.3%,-3.8%,·,CCN(CC)c1ccc(S(=O)(=O)N2CCOCC2)cc1NC(=O)CN1C(=O)NC2(CCCC2)C1=O
-6.0%,?,-15.5%,·,Cc1ccsc1/C=N/NC(=O)c1nnn(-c2nonc2N)c1C
6.3%,32.8%,·,·,COc1ccc(CN2[C@@H](CC(=O)O)c3ccccc3S2(=O)=O)cc1
-2.5%,-18.1%,-5.8%,·,O=C(c1cccnc1)N1CCCC(Nc2ccc(F)cc2)C1 (stereo not given)

Reprinted at random: 3 entries already listed, in no set order.
Rango complex inh,Rango dissoc inh,miR-21 FLuc,GLA inh pH 4.5,mol
-0.3%,20.8%,·,·,Cc1noc(C)c1COc1ccccc1C(=O)N1CCN(c2cccc(Cl)c2)CC1
3.8%,14.3%,-5.1%,2.8,O=C1CCC(C(=O)Nc2nnc(C3CC3)s2)=NN1
-0.1%,-1.8%,·,·,O=S(=O)(NCc1nnc2ccccn12)c1ccc(Cl)cc1

The list goes on.
Rango complex inh,Rango dissoc inh,miR-21 FLuc,GLA inh pH 4.5,mol
1.2%,3.4%,0.3%,·,CCc1ccc2[nH]c(C)c(CN3CCCCCC3)c(=O)c2c1
3.7%,0.2%,·,·,Cc1cc(C)c(NC(=O)CN(C)CC(=O)Nc2cccc(S(=O)(=O)N(C)c3ccccc3)c2)c(C)c1
5.9%,?,8.0%,-10.8,N#CC1=C(N)SC(N)=C(C#N)C1c1cccc(Oc2ccccc2)c1
?,-26.4%,-0.7%,-9.1,N#CC1=C(N)C(C#N)(C#N)C(c2cccnc2)C2COCC=C12 (stereo not given)
-0.3%,24.3%,2.8%,-1.5,O=C(NC1CCCCC1)C(c1ccccc1)N1CCC2(CC1)OCCO2 (stereo not given)
1.0%,-5.4%,-22.9%,5.3,Cc1ccccc1C(=O)Nc1ccc2nc3n(c(=O)c2c1)CCC3
?,-2.0%,0.5%,·,O=C(Nc1ccccc1N1CCCCC1)c1cccc(OC(F)F)c1
1.6%,0.9%,-24.3%,3.9,COc1ccc(-c2nc3cc(NC(=O)c4ccc5c(c4)OCO5)ccc3o2)cc1
-1.0%,-27.4%,·,·,Cc1cc(C(=O)CCC(=O)NCC(=O)Nc2c(C)cccc2C)c(C)s1
-4.6%,-12.1%,4.8%,9.8,O=C(Nc1nccs1)c1ccc(Cl)c(S(=O)(=O)N2CCCCC2)c1
2.0%,8.1%,-15.7%,0.9,CC1=NNC(=O)C1CCC(=O)N/N=C/C(Br)=C/c1ccccc1 (stereo not given)
0.1%,1.5%,15.3%,-4.3,COc1ccc(/C=C/C(=O)Nc2cccc(S(=O)(=O)N3CCCC3)c2)cc1OC
5.5%,3.3%,-23.9%,-0.7,CC(=O)c1c(C)nc(-c2ccc(Cl)cc2)nc1NC(=O)C(C)C
-0.9%,6.1%,-43.3%,3.5,Cc1c(C(=O)Oc2ccc(-c3cnc4ccccc4n3)cc2)cccc1[N+](=O)[O-]
5.8%,-2.3%,-1.1%,-16.2,CCCCC(=O)NC(Nc1sc2c(c1C(N)=O)CCCC2)(C(=O)OCC)C(F)(F)F (stereo not given)
-0.7%,-18.4%,-1.8%,1.4,CC(=O)NC(Cc1cccc(F)c1)C(=O)NC1CCN(C(=O)c2cccc(C)c2)CC1 (stereo not given)
-2.2%,2.0%,-2.1%,-2.0,O=C(O)CCc1ccc(S(=O)(=O)N2CCOCC2)cc1
?,?,-15.1%,0.4,CCc1cccc2[nH]c3cc([N+](=O)[O-])ccc3c12
-4.3%,-16.6%,-0.4%,-1.5,O=C(COC(=O)C1(c2ccc(F)cc2)CCCC1)Nc1ncc(C(F)(F)F)cc1Cl
·,·,0.6%,0.9,C#CCOCCOCCOCCNc1nc(N2CCN(C(=O)[C@H](CCCCN)n3cc(C(N)CO)nn3)CC2)nc(N2CCN(C(=O)[C@H](CCC(=O)O)n3cc(C(N)[C@H](C)CC)nn3)CC2)n1 (stereo not given in full)
-1.6%,1.6%,0.6%,4.6,CCOC(=O)N1CCC(O)(c2cc(C)c(C)cc2C)CC1
-2.7%,7.3%,-1.1%,2.3,CCc1nnc(NC(=O)CN2CCC(O)(c3ccccc3OC)CC2)s1
-4.2%,-2.9%,0.1%,5.6,CCOC(=O)c1ccc(CNC(=O)CSc2nc(NC(=O)c3ccccc3)c3c(C)c(C)oc3n2)cc1
10.5%,-11.5%,8.2%,-4.0,COc1ccc(-n2c(Cc3cccs3)nnc2SCC(=O)Nc2ccc3c(c2)OCCO3)cc1
-3.5%,-4.0%,-1.1%,1.4,O=C(CN1C(=O)NC2(CCc3ccccc3C2)C1=O)Nc1ccc(F)cc1 (stereo not given)
-0.9%,-5.3%,·,·,O=C(c1cccc(NS(=O)(=O)c2ccccc2)c1)N1CCCCC1
1.5%,13.6%,7.1%,·,CC1Cc2cc(S(=O)(=O)N3CCC(C(=O)N(C)Cc4ccco4)CC3)ccc2N1C(=O)C1CCC1 (stereo not given)
0.0%,0.7%,-9.1%,-1.2,CCOC(=O)C(NC(=O)c1ccccc1)(OCC1(CC)COC1)C(F)(F)F (stereo not given)
-0.7%,1.2%,1.2%,1.9,O=C(CNc1ccc(F)cc1)N/N=C1\CCCc2ccccc21
1.2%,-0.3%,-8.7%,·,CCOc1ccc(CCNC(=O)c2cnccn2)cc1OCC
-1.5%,-2.6%,-10.6%,1.0,Cc1noc(C)c1C(=O)Nc1sc(C)c(-c2ccccc2)c1C#N

High-throughput results (PubChem)

The list is partial; count on the stated rates, not on these rows.
